# Polio RdRp inh: poliovirus RNA polymerase inhibition. P03300. poliovirus polymerase elongation, fluorescence polarization; stronger effect = lower value. % elongation, % (compound at 16.7 µg/mL). 150,000 compounds, 0.66% hits. AID 588519; in the data active means % elongation below about 90%; further: some results filed as inactive read as strong as hits
# Target sequence (P03300 1749-2209 limits assumed): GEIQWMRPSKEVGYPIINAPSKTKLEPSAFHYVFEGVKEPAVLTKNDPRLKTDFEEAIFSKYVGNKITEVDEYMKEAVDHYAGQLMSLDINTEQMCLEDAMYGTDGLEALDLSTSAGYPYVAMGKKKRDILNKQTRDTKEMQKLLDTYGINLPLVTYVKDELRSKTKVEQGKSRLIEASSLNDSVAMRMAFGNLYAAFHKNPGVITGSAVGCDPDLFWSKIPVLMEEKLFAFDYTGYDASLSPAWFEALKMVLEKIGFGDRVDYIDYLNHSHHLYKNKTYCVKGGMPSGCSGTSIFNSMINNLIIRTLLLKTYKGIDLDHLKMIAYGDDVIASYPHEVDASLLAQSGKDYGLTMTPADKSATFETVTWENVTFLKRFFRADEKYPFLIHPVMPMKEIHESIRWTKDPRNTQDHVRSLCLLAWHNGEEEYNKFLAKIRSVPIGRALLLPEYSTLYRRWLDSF
# MenB inh: inhibitors of Mycobacterium tuberculosis MenB enzyme. P9WNP5. MenB enzyme assay, absorbance read-out; some hits fall short of the stated cut. inhibition, %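 (about 12 µg/mL by stock and volumes)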. 100,000 compounds, 0.43% hits. AID 540299;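 active means mean of two replicates above 30%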;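 further: 0% = no compound and 100% = wells with inactive enzyme; the first replicate is given; strong numbers were not always called active; inactives centre near -10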
# Target sequence (P9WNP5 whole entry, looked up): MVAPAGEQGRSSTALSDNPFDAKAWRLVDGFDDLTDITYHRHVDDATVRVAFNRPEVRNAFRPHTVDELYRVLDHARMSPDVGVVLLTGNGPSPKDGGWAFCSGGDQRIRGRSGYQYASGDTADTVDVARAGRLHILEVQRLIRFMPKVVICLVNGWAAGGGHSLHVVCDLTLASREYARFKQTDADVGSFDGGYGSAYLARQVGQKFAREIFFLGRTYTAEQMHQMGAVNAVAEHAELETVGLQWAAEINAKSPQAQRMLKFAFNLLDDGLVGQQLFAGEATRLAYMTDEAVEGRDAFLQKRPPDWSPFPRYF
# MbtI inh: MbtI salicylate synthase inhibition; AID 493033; inhibition, %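 (about 17 µg/mL by stock and volumes)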; purified MbtI enzyme, fluorescence intensity read-out; P9WFX0; 100,000 compounds, 0.89% hits;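 active means above 50% in both replicates, above 80% if mildly self-fluorescent; inactive means the rest, strongly fluorescent compounds included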;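 further: 0% = mean of negative and 100% = mean of positive controls; one replicate is shown; some compounds called inactive have numbers as strong as hits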
# Polio RdRp inh intensity: second read-out of Polio RdRp inh, no call of its own (marks repeat the call); % elongation; measured here: total intensity read-out; formula for this scale not given here;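 total fluorescence in place of polarization; lower means less elongation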
# * hit, by the source's call; · = no result given; & = joins results of further samples.
SMILES,Polio RdRp inh,Polio RdRp inh intensity,MenB inh,MbtI inh
CCOC(=O)c1oc2ccc3c(c2c1C)C(=O)CC(C)(C)O3,104,97,5,25
Oc1ccc(CN2CCCCC2)nc1-c1ccccc1,99,100,1,·
CN(C)c1ccc(C(O)c2nc3ccccc3n2C)cc1 (stereo unspecified),101,102,-15,12
CC(=O)O/N=C1/CC(C)(C)Cc2onc(C)c21,102,102,4,-18
Cc1c(C(=O)NCC2CCCO2)oc2ccc(S(=O)(=O)N3CC(C)CC(C)C3)cc12 (stereo unspecified),103,102,-30,-4
O=C(/C=C/c1ccc2c(c1)OCO2)Nc1ccc2nc3n(c(=O)c2c1)CCCCC3,99,105,-35,1
O=S(=O)(NCC1CCCO1)c1ccc(N2CCOCC2)nc1 (stereo unspecified),104,103,8,0
Cc1c(C#N)c(N)c(C(=O)c2ccc(Br)cc2)n1-c1ccc(Br)cc1,99,103,-2,2
O=C(/C=C/c1ccco1)OC1CCCCC1=O (stereo unspecified),104,106,5,12
OC1CSCc2nc3ccccc3n2C1 (stereo unspecified),101,99,-12,-9
Brc1cccc(-c2nnc3sc(CN4CCc5ccccc54)cn23)c1,99,104,-19,42
O=c1[nH]nc(SCc2csc(-c3ccccc3)n2)c(=O)[nH]1,102,100,-6,11
O=C1NCCC2C1N=C(N1CCCCC1)N2C1OC(CO)C(O)C1O (stereo unspecified),102,98,-3,·
CCC(CC)c1nn(CC(=O)c2cc(C)n(CCOC)c2C)c(=N)s1,100,101,7,69
COCCn1c(SCc2nc(N)nc(Nc3ccccc3C)n2)nc2ccccc21,·,·,-20,11
O=C(OCC(=O)C12CC3CC(CC(C3)C1)C2)c1cccnc1,107,113,5,-9
O=C(Nc1ccccc1N1CCOCC1)c1cc2sc3ccccc3c2s1,101,103,-21,-6
O=C(O)c1ccccc1-c1ccccc1C(=O)O,101,105,10,-10
OC(c1ccccc1)(c1ccccc1)C1CCN(c2nnnn2-c2ccccc2)CC1,102,103,-23,-6
C1CCc2nnc(CCN3CCOCC3)n2CC1,99,99,·,1
COc1ccc(OC(C)C(=O)NCc2ccc3c(c2)OCO3)cc1 (stereo unspecified),100,104,-10,-10
CCOc1ccccc1NC(=O)CCc1nnc2ccc(N3CCN(C)CC3)nn12,101,98,-1,0
CCn1cc(C(=O)N2CC(C)CC(C)C2)c(=O)c2cc(S(=O)(=O)N3CCC(C)CC3)ccc21 (stereo unspecified),101,102,-8,0
CC(C)Oc1ccc(C(=O)NCc2cccnc2)cc1,104,100,-30,-8
CC(C)NC(=O)C(C)n1c2ccccc2c2cnn(C)c(=O)c21 (stereo unspecified),103,98,0,47
COc1cccc(N2CCN(C(=O)C3=C(C)C(=O)OC34CCCCC4)CC2)c1,106,100,-13,-11
CCOC(=O)CC(N)c1ccc(OCC)c(OC)c1 (stereo unspecified),100,102,-27,10
O=C(c1ccc(Nc2nc3ccccc3n3nnnc23)cc1)N1CCN(c2ccccc2)CC1,104,105,-9,-14
COc1ccc(OCCSc2n[nH]c(N)n2)cc1,103,99,-5,-11
COc1ccc(CN(C)C(=O)CSc2nnc3sc4ccccc4n23)cc1,·,·,-7,-10
COC(=O)NC1CS(=O)(=O)CC1NC(=O)OC (stereo unspecified),101,104,0,-15
O=C(NCc1ccco1)c1c(NC(=O)c2nn(-c3ccccc3)ccc2=O)sc2c1CCC2,104,102,6,-15
Cc1c(CN2CCCCC2)c(O)n(CCO)c(=O)c1C#N,96,105,8,38
COc1cccc(C(=O)N(Cc2cccnc2)Cc2cc3cc(C)cc(C)c3[nH]c2=O)c1,103,104,-25,65
CCOC(=O)CCCn1nc(C)c2c(C)n(-c3ccc(C)cc3)nc2c1=O,101,101,4,-4
COC(=O)C1=C(NC(=O)COc2ccc(Cl)cc2)CCS1,99,108,7,5
O=C1c2ccccc2C(=O)N1CCSc1nc2cc(Cl)ccc2c(=O)n1Cc1ccco1,106,103,6,13
CNS(=O)(=O)Cc1ccccc1Cl,101,104,-30,-13
Cc1cccc(C)c1NC(=O)CS(=O)CC(=O)NC1CCCc2ccccc21 (stereo unspecified),101,104,11,-4
CCOC(=O)c1ccc(N(C(C)=O)c2nc(-c3cc4cccc(OCC)c4oc3=O)cs2)cc1,104,110,3,-9
COc1ccc(CCNC(=O)CCn2c(=O)oc3ccccc32)cc1OC,101,103,-7,-1
O=C(OCc1cc(=O)oc2cc(O)ccc12)c1nc(Cl)ccc1Cl,88*,98*,-12,-32
O=C(O)/C=C/c1c(Cl)nc2sccn12,105,98,·,12
C(=N\n1cnnc1)/c1ccc2ncccc2c1,102,102,·,16
C=CCN1C(=O)/C(=C/c2ccc3c(c2)n(C)c(=O)n3C)C(=O)NC1=S,99,103,-53,15

# One compound at a time, as listed above.
# `COC(=O)C1=C(NC(=O)COc2ccc(Cl)cc2)CCS1` is entered as Polio RdRp inh = 99; Polio RdRp inh intensity = 108; MenB inh = 7; MbtI inh = 5
# `C=CCN1C(=O)/C(=C/c2ccc3c(c2)n(C)c(=O)n3C)C(=O)NC1=S` is entered as Polio RdRp inh = 99; Polio RdRp inh intensity = 103; MenB inh = -53; MbtI inh = 15

# The listing continues:
SMILES,Polio RdRp inh,Polio RdRp inh intensity,MenB inh,MbtI inh
O=C(CN1CCN(Cc2ccccc2)CC1)Nc1ccccc1,102,104,3,-13
COc1ccc(NC(=O)N2CC=C(c3c[nH]c4ccccc34)CC2)cc1,101,106,-35,-46
O=C(O)Cn1cnc(-c2ccc(Br)cc2)c1,102,105,-3,-14
O=C(Cn1c2c(c(-c3ccccc3)cc1=O)CCCC2)NCc1ccc(Cl)cc1,103,109,-86,10
CC(C)(C)c1ccc(OCCn2cccc2/C=C2/C(=N)N3C=CSC3=NC2=O)cc1,101,106,4,1
CCOC(=O)c1c(NC(=O)Cn2nnc3sc4c(c3c2=O)CCC(C)C4)sc2c1CCCC2 (stereo unspecified),104,97,-16,-4
COc1ccc(C(F)(F)F)cc1NC(=O)c1ccc(Br)o1,104,100,-33,-5
CC1(C)C(c2nc(-c3ccc(Br)cc3)no2)C1(C)C,108,113,-4,·
COC(=O)CN1C(C)=Nc2ccc(C)cc2C1c1ccccc1 (stereo unspecified),105,109,-18,14
O=C(N/N=C/c1ccc(Br)cc1)c1ccc(-n2cnnn2)cc1,99,95,-14,-7
Cc1ccc(C2c3c(n[nH]c3C)C(=O)N2c2ccc(C)cc2)cc1 (stereo unspecified),103,106,-21,5
O=C(NC1=NCCS1)NC12CC3CC(CC(C3)C1)C2,102,103,-16,5
Cn1c(CSC2=NCCN2)nc2ccccc21,100,108,-17,41
Cc1cccc(C(=O)Nc2nc3cc4sc(NC(=O)c5cccc(C)c5)nc4cc3s2)c1,102,105,5,-18
CS(=O)(=O)NC(CC(=O)O)c1ccccc1Cl (stereo unspecified),101,108,-10,-13

# Brought forward from above: 2 entries, followed by the next part.
SMILES,Polio RdRp inh,Polio RdRp inh intensity,MenB inh,MbtI inh
Cc1cccc(C(=O)Nc2nc3cc4sc(NC(=O)c5cccc(C)c5)nc4cc3s2)c1,102,105,5,-18
CS(=O)(=O)NC(CC(=O)O)c1ccccc1Cl (stereo unspecified),101,108,-10,-13
CCCN1CCN(CC(=O)c2ccc3cc[nH]c3c2)CC1,101,101,-3,39
O=C(/C=C/c1cccs1)NCc1ccccc1,103,105,-16,14
CN(C)S(=O)(=O)c1ccc(NC(=O)c2cnc(Cl)c(Cl)c2)cc1,104,101,9,9
O=c1[nH]c(SCc2nnc(Nc3ccccc3)s2)nc2sc3c(c12)CCC3,103,106,-9,20
Cc1oc(S(=O)(=O)N2CCCC2)cc1C(=O)NCc1ccc2c(c1)OCO2,104,109,-1,-6
CCOC(=O)c1c(N)n(C(C)c2ccccc2)c2nc3ccccc3nc12 (stereo unspecified),102,105,-16,25
CCS(=O)(=O)N1CCCC(C(=O)NCc2cccnc2)C1 (stereo unspecified),103,108,2,-5
COc1cc(C2C3=C(CC(c4ccco4)CC3=O)Nc3ccccc3N2C(=O)C2CC2)cc(OC)c1OC (stereo unspecified),103,102,-10,-1
c1ccc2c(c1)COC(CN1CCCCC1)OC2,102,105,-10,2
CC(C)(C)CC(C)(C)NS(=O)(=O)Cc1ccccc1,101,103,-5,0
CC12CC3CC(C)(C1)CC(C(=O)Nc1ccc4c(c1)OCO4)(C3)C2,104,109,-11,-7
C=C(C)[C@@H]1CC[C@]2(C(=O)O)CC[C@]3(C)[C@H](CC[C@@H]4[C@@]5(C)CC[C@H](O)C(C)(C)[C@@H]5CC[C@]43C)[C@@H]12,101&100,102&101,8,-8&-1
C1=C(c2ccccc2)CCN(Cc2nnc(-c3ccc4c(c3)OCO4)o2)C1,102,102,-5,-7
C=CCn1c(COc2ccc(CC)cc2)nnc1SC/C(O)=C(\C#N)c1nc2ccccc2[nH]1,120,149,-37,-36
Cc1nn(-c2ccccc2)c(Cl)c1C(=O)NCC1CCCO1 (stereo unspecified),104,101,-10,5
O=C(c1cc(C(F)(F)F)cc(C(F)(F)F)c1)N1CCC(O)(c2ccc(Cl)cc2)CC1,105,115,-24,-14
CN/N=C/c1cc(OC)c(O)c(OC)c1,101,110,-32,26
O=C(COc1ccc(-c2ccccc2)cc1)NCCN1CCOCC1,99,104,·,-7
Cc1sc2ncnc(Oc3cccc(C(F)(F)F)c3)c2c1-c1ccccc1,104,100,3,-147
Cc1ccc(SCc2cccc(C(=O)N3CCN(c4ncccc4C(F)(F)F)CC3)c2)cc1,103,114,-22,-7
O=C(O)c1cccc(O)c1,100,99,·,-75
CCOC(=O)N1CCN(c2cc(NCCCC(=O)O)c3c4c(onc24)-c2ccccc2C3=O)CC1,71,200,-23,4
Fc1ccc2[nH]cc(CCCN3CCN(c4nc5cc(Cl)ccc5s4)CC3)c2c1,105,103,-14,-6
Cc1ccccc1OCCCCS,103,99,-90,1
CCC(Sc1nnc2c3ccccc3n(CC)c2n1)C(=O)Nc1ccc(S(N)(=O)=O)cc1 (stereo unspecified),105,99,-36,-5
Cc1cc(Cl)nc(N)n1,101,106,-10,5
Cc1cc(=O)oc2cc(OCC(=O)NCc3cccnc3)ccc12,101,107,-12,104
CCOC(=O)c1noc2ncnc(N(CC)c3ccccc3)c12,102,102,-8,-7
Cc1cc(NC(=O)C2C3C(=O)N(c4ccccc4Cl)C(C(=O)NC(C)(C)C)C34C=CC2(C)O4)no1 (stereo unspecified),105,98,-40,-8
Cc1cc(C)nc(SC(C)C(=O)Nc2ccc(S(N)(=O)=O)cc2)n1 (stereo unspecified),100,103,2,-7

# An excerpt from above in order of formula weight, high to low:
SMILES,Polio RdRp inh,Polio RdRp inh intensity,MenB inh,MbtI inh
O=C(c1cc(C(F)(F)F)cc(C(F)(F)F)c1)N1CCC(O)(c2ccc(Cl)cc2)CC1,105,115,-24,-14
Cc1sc2ncnc(Oc3cccc(C(F)(F)F)c3)c2c1-c1ccccc1,104,100,3,-147
O=C(O)c1cccc(O)c1,100,99,·,-75

# Other compounds
SMILES,Polio RdRp inh,Polio RdRp inh intensity,MenB inh,MbtI inh
Clc1ccc(-c2ccnc3nncn23)cc1,100,99,-15,104
CC1OC(NC(=O)c2ccccc2F)C(NC(=O)c2ccccc2F)OC1C (stereo unspecified),101,101,-15,·
Cc1n[nH]c(C)c1C12CC3CC(CC(CC(=O)O)(C3)C1)C2,102,100,-12,-8
CNC(=O)COc1ccc(-c2nn(C)c(=O)c3ccccc23)cc1,105,98,12,17
O=C(O)c1cc2ccccc2c(Cc2cc3ccccc3c(C(=O)O)c2O)c1O (tested in a mixture with another compound),101,101,2,-31
Cc1cc(C(F)(F)F)nn1Cc1ccc(C(=O)NCc2ccco2)o1,99,101,-15,-12

# Another view of some results above:
# Below each SMILES – Polio RdRp inh | Polio RdRp inh intensity | MenB inh | MbtI inh
> CC1OC(NC(=O)c2ccccc2F)C(NC(=O)c2ccccc2F)OC1C (stereo unspecified)
    101 | 101 | -15 | ·
> Cc1cc(C(F)(F)F)nn1Cc1ccc(C(=O)NCc2ccco2)o1
    99 | 101 | -15 | -12
> Clc1ccc(-c2ccnc3nncn23)cc1
    100 | 99 | -15 | 104
> Cc1n[nH]c(C)c1C12CC3CC(CC(CC(=O)O)(C3)C1)C2
    102 | 100 | -12 | -8

# Screening data deposited in PubChem by ICCB-Longwood Screening Facility, Harvard Medical School.

# Rows are unselected. Share with any hit: about 2%.
